Screening data deposited in PubChem BioAssay by several laboratories.
HNF4A DNA FP: change in binding of human HNF4 alpha to DNA; P41235; HNF4a-FITC DNA binding, fluorescence polarization, 1 h; activity change, % at 10 µM; 0.3% of 360,000 active; AID 1224865; in the data active = activity change above about 30%, passing the limit was not always enough;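 also: controls were the assay level and a saturating level of protein; the project sought stronger binding though the title names inhibitors; some compounds called inactive have numbers as strong as hits; positive values seem to mean higher polarization but the record does not say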
Target sequence (P41235 whole entry, looked up): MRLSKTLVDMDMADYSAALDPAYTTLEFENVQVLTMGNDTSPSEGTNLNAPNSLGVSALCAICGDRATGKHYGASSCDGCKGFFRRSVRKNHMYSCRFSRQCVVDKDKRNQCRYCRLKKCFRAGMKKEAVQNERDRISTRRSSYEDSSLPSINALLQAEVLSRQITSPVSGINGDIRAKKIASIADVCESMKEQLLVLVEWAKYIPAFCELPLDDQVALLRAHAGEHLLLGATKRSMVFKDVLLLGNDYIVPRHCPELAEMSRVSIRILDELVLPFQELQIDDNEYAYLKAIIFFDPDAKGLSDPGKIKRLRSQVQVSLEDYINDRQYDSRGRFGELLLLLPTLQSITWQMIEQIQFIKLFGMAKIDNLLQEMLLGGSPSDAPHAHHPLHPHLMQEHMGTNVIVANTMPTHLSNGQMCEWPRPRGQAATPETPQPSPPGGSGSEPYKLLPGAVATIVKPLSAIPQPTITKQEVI
A1 inh: inhibitors of the anti-apoptotic protein A1, read as caspase activation; MEF A1-2A-BIM cells, Caspase-Glo 3/7 luminescence, 3 h; percent of clofoctol response, vehicle zero; caspase activation, % (no concentration beside the values); 0.066% of 330,000 active; AID 2462;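 active = over half of replicate activation scores above 10%, or exactly half above 10 with the replicate mean above 10; inconclusive = replicate mean below 10 yet half the replicates above 10; inactive = over half of replicates below 10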;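 also: wells of about 30 µL received 50 nL stock; many hits fall short of the cut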
UCH37 DUB inh: inhibitors of human deubiquitinating enzyme UCH37 | inhibition, % (no concentration beside the values) | purified proteasome/UCH37, Ub-AMC cleavage fluorescence | 0.33% of 330,000 active | Q9Y5K5 | AID 588478;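 active = mean of two replicates above 20%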;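 also: 0% = compound-free wells with enzyme and 100% = wells lacking proteasome; stock transfer was 100 nL into about 20 µL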
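Assay system: Proteasome-bound UCH37. Buffer or medium: pH 7.4 Tris-HCl (50 mM) with ovalbumin, ATP-MgCl2, DTT. Incubation: 30 min preincubation with enzyme, 25 min cleavage at room temperature. Measured by: fluorescence, ex 355 nm, em 460 nm. Read-out basis: percent inhibition. Control set: wells without proteasome as full block, compound-free enzyme plus substrate as uninhibited.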
E coli growth: inhibitors of Escherichia coli growth; OD600, 23 h; active compounds read low; OD600 absorbance (concentration not given with the values); 0.21% of 330,000 active; AID 1053175;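 active = OD600 absorbance below the run mean of sample wells minus 3.6 SD, in any replicate, cut at about 0.56 in these data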;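 also: stock transfer was 300 nL into about 60 µL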
Vif TR-FRET: HIV-1 Vif–A3G interaction blockers – biochemical, TR-FRET, GST-Vif 1-94, biotin-A3G peptide, dose response retest, primary screen (AID 1117319); TR-FRET GST-Vif / biotin-A3G peptide binding; higher % means a stronger effect; test concentration not given here; strong numbers were not always called active; inhibition, %, or IC50 in µM where a hit was titrated; 0.57% of 260,000 active;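 active = above the screen mean plus three standard deviations and confirmed in dose response; inconclusive = results disagree or hit not tested in dose response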;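 also: Vif residues 1-94 fused to GST binding biotinylated APOBEC3G peptide 110-148; 0% = full assay without inhibitor and 100% = GST in place of GST-Vif; retest series ran down from 100 µM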
Beta2AR agonist: activates human beta-2 adrenergic receptor causing internalization; Am2.2-beta2AR cells, FAP receptor internalization, flow cytometry; reference of the scale not given here; 0.43% of 340,000 active; response, % (no concentration beside the values); P07550;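 active = response above a set limit, near 3 SD of response in nonfluorescent compounds, cut at about 42% in these data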;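 also: stock transfer was 100 nL into about 11 µL; a reference agonist was the positive control; negative values mostly stem from fluorescent compounds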
Target sequence (P07550 whole entry, looked up): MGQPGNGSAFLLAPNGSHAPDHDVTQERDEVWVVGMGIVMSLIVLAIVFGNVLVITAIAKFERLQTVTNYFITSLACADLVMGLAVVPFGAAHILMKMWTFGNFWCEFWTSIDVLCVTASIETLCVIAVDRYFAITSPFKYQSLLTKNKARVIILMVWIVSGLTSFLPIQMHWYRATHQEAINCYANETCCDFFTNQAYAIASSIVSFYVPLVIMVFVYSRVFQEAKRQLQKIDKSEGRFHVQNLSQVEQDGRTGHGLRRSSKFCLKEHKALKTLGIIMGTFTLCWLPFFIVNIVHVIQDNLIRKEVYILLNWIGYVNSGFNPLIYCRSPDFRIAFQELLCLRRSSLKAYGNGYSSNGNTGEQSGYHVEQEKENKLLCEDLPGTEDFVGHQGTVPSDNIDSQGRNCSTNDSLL
LANA-H2B inh: blocks KSHV LANA binding to histone H2A/H2B. Q9QR71. cell-free LANA-H2A/H2B peptide, fluorescence polarization. inhibition, % (test concentration not listed). AID 2629. 0.6% of 320,000 active; in the data active = inhibition mostly above about 10%, no sharp cut-off; inactive = mostly below about 6.7%;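 also: stock transfer was 7.5 nL into about 10 µL; 0% = median of vehicle wells and 100% = median of positive control wells; one replicate is shown; the record names a cut of 25% in any replicate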
The depositor's hits bear a star; ? = inconclusive; · = not tested or not shown; & = joins results of further samples. An unsorted share of the library; about 2.1% have a hit in one of these screens.

SMILES	HNF4A DNA FP	LANA-H2B inh	UCH37 DUB inh	A1 inh	Vif TR-FRET	Beta2AR agonist	E coli growth
CC(=O)O[C@@H]1[C@H]2[C@@H](C[C@@H](C)[C@@H]3CCC(=O)[C@@]13C)OC(=O)[C@@H]2C	4.6	-1.0	4.4	0.8	12.3%	-0.6	·
Cc1cccc(C(=O)Nc2cc(Cl)ccc2-n2cncn2)c1[N+](=O)[O-]	-0.5	-0.3	3.4	0.4	-1.3%	-2.6	0.71
O=C(O)c1ccc(-c2nc3scc(-c4ccccc4)c3c(=O)[nH]2)cc1	10.5	-2.1	-14.9	-2.0	·	-1.0	0.668
O=C1C(Cc2ccc(F)cc2)SC(=Nc2ccccc2)N1c1ccccc1 (stereo unspecified)	-4.4	-4.4	4.7	-1.0	·	-1.9	0.661
Cc1onc(-c2ccccc2Cl)c1C(=O)NCCn1c(C)cc2ccccc21	-5.7	-1.5	1.9	0.1	·	-4.7	0.773
O=C(CNC(=O)c1ccc(N2C(=O)c3ccccc3C2=O)cc1)OCC(=O)c1cccc2ccccc12	-0.6	-0.8	3.0	0.6	1.6%	-12.4	0.728
O=C(NC(=S)Nc1ccc(Cl)cc1)c1cncc(Br)c1	-0.5	-1.3	5.3	0.0	·	-8.3	0.707
CC1CCCCN1S(=O)(=O)c1ccc(C(=O)N2CCOCC2)cc1 (stereo unspecified)	-2.0	2.6	5.0	0.3	·	-4.3	0.66
CN(C(=O)c1ccc(=O)[nH]c1)C1(C(=O)NC2CCCCC2)CCCCC1	-0.3	-0.7	1.2	-0.5	?	3.1	0.711
CCN(CC)S(=O)(=O)c1ccc(N2CCOCC2)c(NC(=O)c2cc(C)cc(C)c2)c1	-0.2	0.8	-0.5	0.1	14.9%	-1.9	0.709
CCc1cc(=O)oc2cc(C)c(CN3CCCCC3)c(O)c12	-5.0	-1.7	-33.2	-0.2	?	-5.2	0.659
CC(C)N1CCN(Cc2ccc(Sc3nncn3C)o2)CC1CCO (stereo unspecified)	1.6	3.8	2.4	1.7	23.5%	-0.1	0.709
CCCc1sc(N/N=C/c2ccccn2)nc1-c1ccc(F)cc1	-1.5	-0.1	·	-0.3	13.2%	-2.4	·
CCN(CC)C(=O)CSc1nc2sc(C)c(C)c2c(=O)[nH]1	-1.3	-2.1	4.1	0.7	1.0%	-5.4	0.681
COC1CCN(C(=O)c2ccc(OC3CCN(CCc4ccccc4)CC3)cc2)CC1	4.3	-3.4	3.0	0.8	-5.0%	-6.7	0.654
Cn1c(=O)oc2cc(S(=O)(=O)NCCc3ccccc3)ccc21	-0.2	1.2	4.1	1.3	?	-7.7	0.733
CCOc1ccc(OCCC(=O)OCC(=O)Nc2ccc(C)c(S(=O)(=O)N3CCCCC3)c2)cc1	-2.9	·	2.5	-0.4	-1.7%	1.6	0.707
CCN(CC)c1ccc(C=C2C(=O)OC3(CCCCC3)OC2=O)cc1	9.7	-1.5	1.0	0.4	12.8%	14.6	0.681
Cc1cc(N2CCCC2)ccc1NC(=O)COc1cccc(C(F)(F)F)c1	3.1	-2.5	1.7	-0.4	0.7%	4.4	0.702
COc1ccc(Br)cc1CN(C)C(C)C(=O)Nc1cc([N+](=O)[O-])ccc1OC (stereo unspecified)	0.1	-3.9	1.0	1.4	·	-1.0	0.675
O=C1CC2(CCN(C(=O)c3c(F)cccc3Cl)CC2)Oc2ccccc21	0.9	2.1	-39.0	0.1	·	-1.3	0.658
COc1cccc(C2=CC(=O)C(C(C)(C)C)N2C(C)(C)C)c1 (stereo unspecified)	0.3	·	·	·	1.5%	2.8	·
COc1cc(OC)c2c3c(c(C4CCCCC4)nc2c1)CCCC3	0.9	·	·	·	-8.5%	13.8	·
Fc1ccc(NC(=S)N2CCCCC2)cc1	-0.9	1.0	3.5	1.5	·	-9.6	0.679
CCCN(c1ccccc1F)S(=O)(=O)c1c[nH]c(C(=O)OC)c1	1.2	3.3	5.1	-0.1	2.1%	-21.5	0.704
COCCN(C(=O)c1cccc(OC)c1)c1nnc(-c2ccncc2)s1	-0.5	0.1	-1.6	0.1	-37.0%	2.5	0.752
CC(C)(CN1CCCCC1)NS(=O)(=O)c1ccc(Cl)cc1	0.8	-6.1	0.4	0.0	1.9%	5.6	0.703
CC(=O)C1=C(Nc2ccc(C)cc2)CC(C)(O)C(C(C)=O)C1c1ccco1 (stereo unspecified)	1.3	-3.5	11.4	0.4	?	3.1	0.727
Cc1ccccc1CC(=O)NCCN1CCOCC1	2.2	-5.6	-0.2	-0.3	·	6.1	0.701
CCOC(=O)Cc1csc(NS(=O)(=O)c2ccc([N+](=O)[O-])cc2)n1	-4.5	-1.3	2.1	-0.7	·	-8.9	0.637
CC1CN/C(=C\C(=O)c2ccccc2)C(=O)N1 (stereo unspecified)	-0.6	-0.5	1.0	-1.1	-5.7%	-9.6	0.734
COc1ccc(N(C(=O)c2snc(C(N)=O)c2N)C(C(=O)NC2CCCCC2)c2ccc(C)o2)c(OC)c1 (stereo unspecified)	2.7	1.9	-4.1	0.1	14.3%	11.5	0.698
O=C(NCCCO)c1cc2c(cn1)[nH]c1ccccc12	-2.4	-2.7	-78.9	0.9	-3.4%	-11.9	0.671
CCCOc1ccccc1C(=O)NC(CO)C(=O)O (stereo unspecified)	2.1	2.4	-0.3	0.2	?	4.0	0.699
COC(=O)c1ccc(NC(=S)N2CCCC2)cc1	-4.9	-8.9	3.2	-0.4	-11.9%	4.7	0.635
CCOc1ccccc1NC(=O)c1c(Br)cnn1C	-2.8	·	-10.1	0.1	·	1.2	0.685
Cn1cnnc1SCC(=O)Nc1ccccc1C(=O)NC1CC1	1.6	2.3	-1.2	-0.4	63.4%	4.6	0.735
O=C(CCSCc1ccc(Cl)cc1)NC1CCCC1	-1.0	-0.6	3.4	0.5	2.8%	-9.8	0.665
Cc1cccc(N(C(=O)CCC(=O)Nc2ccccn2)C(C(=O)NC(C)C)c2ccc(F)cc2)c1 (stereo unspecified)	-1.4	2.7	5.7	-1.3	-1.8%	-15.6	0.667
NC(=O)CC(NC(=O)Cc1ccc(Br)cc1)c1ccc(NC2CCCCCC2)c([N+](=O)[O-])c1 (stereo unspecified)	30.9	-0.2	3.4	0.0	·	-4.7	0.685
CCOc1ccc(NC(=O)CCn2c(=S)oc3ccccc32)cc1	0.0	3.5	1.0	-0.6	-6.0%	0.3	0.681
COc1ccccc1C(=O)C1CCCN(C(=O)c2cnn(C(C)C)c2)C1 (stereo unspecified)	-3.2	-1.9	1.5	0.9	-1.0%	6.6	0.664
Cc1cccc(CC2CC(=O)N(CCc3ccc4c(c3)OCO4)C2=O)c1 (stereo unspecified)	-0.7	-2.3	-2.2	0.2	·	-6.4	0.715
COc1ccc(S(=O)(=O)N/N=C(/C)c2ccncc2)cc1OC	7.0	-0.4	·	1.1	·	-3.2	·
COc1ccc(-c2ccnc3nc(-n4cccc4)nn23)cc1	-1.3	2.0	-10.0	1.6	0.1%	-19.6	0.666
Cc1ccc(S(=O)(=O)n2oc(=O)c(C3CCCCC3)c2N)cc1	1.2	·	1.1	·	-3.7%	3.8	0.64
CC(=O)Nc1ccc(NC(=O)c2ccccc2S(=O)(=O)c2ccc([N+](=O)[O-])cc2)cc1	2.5	-1.6	0.8	0.9	-2.6%	-5.7	0.7
CC(C)NC(=O)CC(=O)NN=C1CCCCC1	-2.3	4.3	0.4	-0.3	-8.1%	-4.0	0.701
CC1(C)CC2(CC(c3cccs3)c3cc(Cl)c(O)cc3O2)NC(=S)N1 (stereo unspecified)	2.6	-0.7	0.8	-0.4	7.5%	-2.3	0.74
COc1ccc(NC(=O)COc2ccccc2)cc1NC(=O)c1ccco1	-0.3	-2.5	2.4	0.9	·	-8.1	0.634

Given with values under each structure: part of the list above.
Every second line gives: HNF4A DNA FP, LANA-H2B inh, UCH37 DUB inh, A1 inh, Vif TR-FRET, Beta2AR agonist, E coli growth
> CC1CN/C(=C\C(=O)c2ccccc2)C(=O)N1 (stereo unspecified)
    -0.6, -0.5, 1.0, -1.1, -5.7%, -9.6, 0.734
> COc1ccc(N(C(=O)c2snc(C(N)=O)c2N)C(C(=O)NC2CCCCC2)c2ccc(C)o2)c(OC)c1 (stereo unspecified)
    2.7, 1.9, -4.1, 0.1, 14.3%, 11.5, 0.698

Other records.
SMILES	HNF4A DNA FP	LANA-H2B inh	UCH37 DUB inh	A1 inh	Vif TR-FRET	Beta2AR agonist	E coli growth
O=C(N1CCOCC1)N(CCN1CCOCC1)Cc1cccc(Cl)c1	2.3	0.4	5.3	-0.6	0.4%	-2.8	0.761
Cc1cccc(/C=N\N=C\c2cccc(C)c2)c1	1.1	1.1	·	-1.3	·	-3.9	·
O=C1CCN(Cc2ccccc2)C(=O)N1c1ccccc1	0.0	-2.3	-0.6	-0.2	-7.0%	7.8	0.649
O=C(O)CNS(=O)(=O)c1cccc2nsnc12	-0.6	6.1	4.2	-0.6	-1.7%	1.2	0.675
O=C(N/N=C/c1ccc(Cl)cc1Cl)c1n[nH]c2c1CCCC2	-2.0	-2.6	·	-0.1	·	-1.6	·
CCCCCCNC(=O)N[C@H](C(=O)NCCC[C@H]1CN2C(=NC[C@H]2C)N1CCC(c1ccccc1)c1ccccc1)C(C)O (stereo partly specified)	·	1.3	0.8	-0.7	-7.0%	0.3	·
C[C@@H]1[C@H]2CCCC[C@H]2CN(C(=O)OC(C)(C)C)[C@@H]1c1cn(Cc2ccccc2)c2ccc(F)cc12	-4.6	·	1.2	·	-1.7%	-3.8	0.72
CN(C)c1ccc(/C=N/NC(=O)c2ccc(CN3CCOCC3)cc2)cc1Br	0.1	2.5	·	0.2	-12.5%	5.6	·
COc1cccc(-c2noc(CCC(=O)N3CCN(c4cc(C)ccc4C)CC3)n2)c1	0.7	·	0.7	·	-5.2%	11.2	0.701
CCNc1nc(SCCOc2ccc(C)cc2)nc(N(C)C)n1	1.4	-9.5	3.5	-0.3	-1.0%	-1.8	0.708
CCc1nnc(NC(=O)[C@@H](NC(=O)c2cccc(C)c2)C(C)C)s1	0.4	1.8	1.5	0.4	·	-4.2	0.701
Nn1c(SCC(=O)Nc2ccc(S(N)(=O)=O)cc2)nnc1C(F)(F)F	4.4	0.2	2.7	0.6	27.8%	-9.3	0.736
Cc1ccc(S(=O)(=O)N2CCN(S(=O)(=O)c3c(C)n[nH]c3C)CC2)cc1C	2.9	0.2	-1.0	1.0	-1.5%	1.4	0.659
Cc1cc(C)n(C(=O)c2cccc([N+](=O)[O-])c2C)n1	-1.7	1.6	3.2	0.1	·	6.8	0.686
CC(C)c1ccc(O)c(NC(=S)NC(=O)c2cccnc2)c1	1.2	-0.4	1.4	1.5	·	-7.5	0.71
Cc1cccc(OC(C)C(=O)N(Cc2cccs2)C2CCS(=O)(=O)C2)c1C (stereo unspecified)	-2.3	1.4	1.6	1.2	2.3%	3.5	0.666
Cc1csc2ncc(C(=O)N3c4ccccc4CC3C)c(=O)n12 (stereo unspecified)	1.9	0.8	10.7	-0.1	0.6%	-3.7	0.747
Cc1ccnc(NC(=O)CCC(=O)N(CC(=O)NC2CCCCC2)c2cccc(C)c2C)c1	-2.3	-0.2	2.5	0.0	5.7%&-0.4%	6.0	0.698
Cc1ccc(/C=C2\SC(=S)N(CCCC(=O)Nc3cc(C)on3)C2=O)cc1	3.9	-4.6	6.0	0.5	·	-2.2	0.735
Cc1ccc(C(=O)NCCSc2c(C)[nH]c3ccccc23)cc1[N+](=O)[O-]	0.6	0.4	3.1	-0.3	17.7%	7.0	0.766
